CSC inhib – blocks cancer stem cells; cancer stem cell-like cells viability, luminescence; inhibition, % at 7.5 µM; hit rate 1.1% among 300,000; AID 2717;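 active = mean at 75% or more and at least half the replicates too; tested in HMLE shEcad cells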;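 also: 0% = median of negative and 100% = median of positive control wells; the first replicate is given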
eIF4H inh – inhibitors of RNA binding by human eIF4H; Q15056; eIF4H fluorescence polarization binding assay; inhibition, % at 35 µM; hit rate 0.94% among 290,000; AID 2012;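 active = 50% or more with normal probe brightness, or confirmed in later tests; about a fifth of its hits are not listed in these tables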;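 also: calls also rest on retests at 20 µM and on dose response follow-up; 0% = protein and probe with vehicle and 100% = probe without protein; strong numbers were not always called active; many hits fall short of the cut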
Rce1 inh – inhibitors of yeast Ras-converting enzyme; yeast membranes, quenched prenylated peptide cleavage fluorescence; calls only; hit rate 0.27% among 290,000;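 active = fall in fluorescence gain of 50% or more versus controls, with final raw signal at or below 3038400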;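 also: plate controls were neutral control wells for no effect and wells lacking membranes for full effect; tested at 10 µM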
Target sequence (Q03530 whole entry, looked up): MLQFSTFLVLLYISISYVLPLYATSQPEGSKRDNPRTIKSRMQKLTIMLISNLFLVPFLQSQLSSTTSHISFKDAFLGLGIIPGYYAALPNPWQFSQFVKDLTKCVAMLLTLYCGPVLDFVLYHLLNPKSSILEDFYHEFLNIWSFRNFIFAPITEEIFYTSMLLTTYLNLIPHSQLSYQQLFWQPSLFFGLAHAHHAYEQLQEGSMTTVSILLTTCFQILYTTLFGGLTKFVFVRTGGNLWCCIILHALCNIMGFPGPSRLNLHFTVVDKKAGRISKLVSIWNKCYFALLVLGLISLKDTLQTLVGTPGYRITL
PABP FP inh – PABP-poly(A) binding inhibition. P11940. PABP-poly(A) RNA binding, fluorescence polarization. inhibition, % at 35 µM. hit rate 1% among 290,000;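 active = 50% or more with normal probe brightness, or confirmed in later tests; about a fifth of its hits are not listed in these tables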;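 also: calls also rest on retests at 20 µM and on dose response follow-up; controls were probe without protein and protein plus probe with vehicle; some compounds called inactive have numbers as strong as hits; many hits fall short of the cut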
HIV Env fusion – blocks HIV Env-driven cell-cell fusion. HeLa-JRFL Env/CEM21 cell fusion, luciferase. inhibition, % at 12.3 µM. hit rate 1.1% among 360,000. AID 651610;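 active = mean replicate inhibition score of at least 50 and every replicate individually at or above 50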;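 also: 0% = plate neutral controls and 100% = maraviroc near 300 nM; one replicate is shown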
MT1-MMP act inh – MT1-MMP (human) activation inhibition; hit rate 0.061% among 360,000; GFP/RFP ratio change, % at 20 µM; P50281; HT1080 RFP-PRO-GFP cells, GFP/RFP ratio fluorescence, overnight; percent of plate control window, DMSO zero;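 active = GFP/RFP ratio change of at least 30% with cell ATP level not reduced by more than half and red fluorescence within 50% of control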; also: strong numbers were not always called active
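Compound: 20 µM single dose, 1% DMSO / System: HT1080 RFP-PRO-GFP cells / Controls: DMSO and RFP-L50D-GFP cell wells / Read-out basis: GFP/RFP fluorescence ratio / Schedule: overnight compound exposure at 37 °C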
Yeast UUG start – modulators of start codon recognition fidelity in yeast; S. cerevisiae UUG-firefly luciferase reporter, luminescence/redox ratio; activity score, % at 18.7 µM; hit rate 0.13% among 350,000;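 active = replicate mean at a twofold rise or more, about +100% in these data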;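 also: firefly luciferase made from a UUG start codon reports start codon fidelity; reporter light over untreated wells divided by growth signal over untreated wells; some hits fall short of that in this replicate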
eIF4H inh retest – further read-out of eIF4H inh, marked with its call; inhibition, %; compound at 20 µM; confirmation average;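 mean of two retest wells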
PABP FP inh retest – second read-out of PABP FP inh, no call of its own (marks repeat the call); inhibition, %; compound at 20 µM; confirmation repeats;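 mean of two retest wells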
MT1-MMP act inh RFP – further read-out of MT1-MMP act inh, marked with its call; RFP signal change, %; measured here: RFP expression control read;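 0 = vehicle wells; hits needed this value within 50% of zero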
Numbers without * were called inactive; i = inactive; . = no result given; & = joins results of further samples.

SMILES | CSC inhib | eIF4H inh | Rce1 inh | PABP FP inh | HIV Env fusion | MT1-MMP act inh | MT1-MMP act inh RFP | Yeast UUG start | others
CCOc1ccc(-c2cn3ccccc3n2)cc1 | 5 | 39 | i | 18 | -137 | 0 | -1 | .
O=c1[nH]nc(-c2ccccc2)c2ccccc12 | -11 | -1 | i | -10 | 0 | 1 | 2 | -7
CCOC(=O)C1=C(C)NC(C)=C(C(=O)OCC)C1C(=O)OCC(=O)N1CCC(C)CC1 | -16&-10 | 11 | i | 0 | -6&17 | -1&-1 | -2&4 | -20&0
Nc1nc(SCC(=O)N2CCCc3ccccc32)n(-c2ccccc2)n1 | 10 | -6 | i | -2 | -10 | -1 | 0 | 16
COc1ccc(C2=NCCn3nc4cc(C(F)(F)F)ccc4c32)cc1 | 18 | . | i | . | 15 | 4 | 2 | -19
O=C(Nc1nnc(-c2ccc(F)cc2)s1)c1c(F)cccc1Cl | 6 | -4 | i | 8 | -4 | 2 | -1 | -21
O=C(Nc1ccc2c(c1)Cc1ccccc1-2)c1cc2ccccc2o1 | -2 | . | i | . | . | 1 | 3 | .
Cn1cnc(NCc2ccccc2)c1[N+](=O)[O-] | -5 | 1 | i | -6 | 3 | 2 | 2 | -8
O=C(O)c1cccc(C(=O)Nc2cccc(NC(=O)C3CCCO3)c2)c1 (stereo not given) | -4 | -5 | i | 2 | . | 3 | 2 | -38
Cn1c(=O)[nH]c(=O)c2c1nc(N1CCN(Cc3ccccc3)CC1)n2CCCc1ccccc1 | 22 | -3 | i | -14 | . | 0 | -5 | -32
COc1ccc(C)cc1S(=O)(=O)Nc1ccc(F)c(Cl)c1 | -13 | 0 | i | 37 | . | 3 | 1 | -4
O=C(CC(CC(=O)c1ccc(Br)cc1)c1cccnc1)c1ccc(Br)cc1 | 3 | -5 | i | 2 | 12 | 1 | -22 | 5
O=C(CN(CC1CCCO1)C(=O)CNS(=O)(=O)c1ccccc1)NCc1ccccc1 (stereo not given) | -7 | -1 | i | 4 | . | -7 | 1 | -18
O=S(=O)(c1cccc(-c2nnc(SCc3nc4ccccc4s3)o2)c1)N1CCOCC1 | -1 | -2 | i | -4 | . | -17 | -11 | -47
C=CC[C@H](CC(=O)NCCO)C(=O)NCCOC(=O)[C@@H](CC=C)Cc1ccc(F)cc1 | . | . | . | . | 7 | 1 | 3 | -27
O=C(CNC(=O)[C@@H]1Cc2ccccc2CN1)NCc1ccco1 | -15 | 26 | i | 5 | 4 | -1 | 5 | 3
COc1ccc(Cl)cc1/C=C(\C#N)C(N)=O | 5 | -8 | i | 13 | 12 | -1 | 0 | -23
Cc1ccc(S(=O)(=O)N2CCN(C(=O)COC(=O)COc3ccc(Br)cc3)CC2)c(C)c1 | . | . | . | . | -2 | 4 | 5 | -6
COc1cccc(-n2c(COc3ccc(C)cc3)nnc2SCC(=O)O)c1 | -14 | -2 | i | 5 | -38 | 3 | 7 | -10
O=C(Nc1ccc2c(c1)OCCO2)c1cc(-c2ccccc2)nc2ccccc12 | -12 | -6 | i | -2 | -20 | -4 | -6 | 5
O=C(CSC1=NCCN1)NC(c1ccccc1)c1ccccc1 | 14 | -3 | . | -10 | -2 | -5 | -3 | .
CCOc1ncccc1C(=O)Nc1ncc(C)s1 | -14 | 0 | i | -12 | -8 | -1 | 5 | .
O=C(NCc1cccs1)c1ccc(CS(=O)(=O)c2ccc(Cl)cc2)o1 | -17 | 5 | i | -3 | 31 | 1 | 0 | -6
COC(=O)C1CCN(Cc2nnc(-c3ccccc3)o2)CC1 | -5 | 3 | i | -1 | -8 | 4 | 6 | -10
O=C(CSc1nnc2ccccn12)Nc1ccccc1[N+](=O)[O-] | . | . | . | . | 8 | -2 | 0 | -1
Cc1ccc(NC(=O)CN(C)C(=O)c2n[nH]c(=O)c3ccccc23)cc1 | -10 | 17 | i | 2 | -18 | 6 | 5 | -10
O=C(O)CCCCCNC(=O)c1ccccc1 | -2 | 1 | i | -11 | -10 | -2 | -1 | 7
COCc1cc(C)nc2sc(C(=O)Nc3ccccc3F)c(N)c12 | -1 | 2 | i | -6 | -8 | -3 | -2 | -14
Cc1cccc(C(=O)NC(=S)NCc2cccnc2)c1 | -10 | -18 | i | -6 | -8 | 1 | 2 | .
CC(C)CC(NC(N)=O)C(=O)NCCc1ccc(Cl)cc1 (stereo not given) | -1 | -2 | i | -10 | 3 | -1 | 0 | .
COc1ccc(F)cc1-c1cc(C(=O)Nc2ccc(C)c(NS(C)(=O)=O)c2)[nH]n1 | . | . | . | . | 9 | 2 | -15 | -11
COc1ccc(S(=O)(=O)N2CCC(C(=O)NCc3ccncc3)CC2)cc1OC | -10 | -1 | . | -6 | -8 | 2 | 1 | -15
CN(CCOc1ccc(Cl)cc1)CC(O)c1ccccc1 (stereo not given) | 4 | 11 | i | 12 | -6 | 1 | 7 | -9
CC(C)CN(C(=O)COC(=O)C1CC1)c1c(N)n(Cc2ccccc2)c(=O)[nH]c1=O | -3 | . | i | . | 4 | -1 | 3 | .
Cc1ccc2nc(-c3ccco3)c(Nc3ccccc3)n2c1 | 2 | 50 | i | 3 | . | 1 | -1 | . | eIF4H inh retest=3;PABP FP inh retest=3
N#Cc1ccccc1CN1C(=O)NC2(CCCCCC2)C1=O | -5 | -5 | i | -6 | -9 | -4 | -1 | -9
O=C(CCNC(=O)c1ccc(Br)cc1)Nc1cccc(S(=O)(=O)N2CCCCCC2)c1 | 2 | . | i | . | . | 1 | -4 | -1
OC(COCc1ccc2c(c1)OCO2)CN1CCCCC1 (stereo not given) | -9 | 1 | i | -1 | 3 | 2 | 6 | .
CCc1ccc(C(=O)CSc2nc(N)cc(=O)[nH]2)cc1 | -17 | -2 | i | 1 | 9 | 4 | -3 | -1
COc1cc(NC(=O)c2sc3ncn(CC(=O)N4CCCC(C)C4)c(=O)c3c2C)cc(OC)c1OC (stereo not given) | -9 | -12 | i | 0 | -1 | 0 | 2 | -18
CCC(c1nnc(SCC(=O)N2CCOCC2)n1C1CCCCC1)N(C)C (stereo not given) | 0 | -9 | i | -8 | 4 | 4 | 1 | -17
NS(=O)(=O)c1ccc(CCNC(=O)CSc2ccc3ccccc3c2)cc1 | 10 | 2 | i | -1 | 20 | 4 | 0 | .
CCc1nnc(NC(=O)c2nc(S(=O)(=O)Cc3cccc(C)c3)ncc2Cl)s1 | 110* | 48 | i | 10 | 63* | -10 | -13 | -22
O=C(NC(c1cccnc1)c1ccc2c(c1)OCO2)C1CCN(CCOc2ccc(Cl)cc2Cl)CC1 (stereo not given) | . | . | . | . | -10 | 4 | 1 | -11
Cc1ccc(C(=O)Nc2nc3ccccc3n2CCN2CCCC2)cc1 | 0 | 4 | i | -4 | . | 0 | 4 | -19
CCOC(=O)N1CCN(C(=O)CCl)CC1 | -4 | -1 | i | -3 | 15 | -3 | -5 | .
CC(=O)Oc1ccc(/C(C)=N\N2CCN(Cc3ccc(Cl)cc3)CC2)cc1 | -5 | 2 | i | 4 | 0 | 6 | -5 | -9
O=c1[nH]c2ccsc2c(=O)n1-c1ccc(F)c(Cl)c1 | -16 | -3 | i | 4 | -24 | 3 | 5 | -15
CN(CC(=O)N1CCc2ccccc21)S(=O)(=O)c1ccc(Br)s1 | 8 | -9 | i | -10 | . | -2 | 1 | 0
CC1=C(C(=O)Nc2cc(C(=O)N3CCC(C)CC3)ccc2C)SCCO1 | -9 | -6 | i | 11 | 1 | 8 | -4 | -7
CCOC(=O)N1CCN(C(=O)c2cn(CC)c3ccc(S(=O)(=O)N4CC(C)CC(C)C4)cc3c2=O)CC1 (stereo not given) | -8 | -2 | i | -10 | 10 | -2 | -1 | .
CN(Cc1ccccc1)S(=O)(=O)c1cccc(C(=O)O)c1 | -7 | -14 | i | -11 | 1 | 1 | 1 | .
CCc1ccc(NC(=O)N(C2CCC(C)CC2)C2CCN(C(C)=O)CC2)cc1 (stereo not given) | 13 | 3 | i | 0 | . | 4 | 2 | -14
CC(C)C(=O)Nc1cccc(-c2cnc3ccccc3n2)c1 | -5 | -6 | i | -4 | -34 | 3 | 2 | 1
Cc1ccccc1CC1(CO)CCCN(C(=O)CCN2CCCO2)C1 (stereo not given) | -1 | 14 | i | -8 | -4 | 1 | 1 | -6
Cc1nnc(SCC(=O)N2CCN(c3ccccc3)CC2)n(N)c1=O | 4 | -4 | i | -1 | 1 | -2 | 4 | -1
Cc1ccccc1CC(=O)NC1CCCCCC1 | 24 | 4 | i | 10 | -20 | 2 | 4 | -20
CCCn1nnnc1SCC(=O)NCc1ccc(OC)cc1 | . | 3 | i | 7 | . | 2 | 2 | -22
CC(=O)Nc1ccc(NC(=O)C(C)OC(=O)CCc2c[nH]c3ccccc23)cc1 (stereo not given) | 4 | . | i | . | 10 | 1 | 7 | -1
CCOc1cccc(C2C(C#N)=C(N)Oc3cc(C)oc(=O)c32)c1OCC (stereo not given) | 4 | 0 | i | -6 | . | 3 | 6 | -17

Among those listed so far, 3 contain a cyano group.
SMILES | CSC inhib | eIF4H inh | Rce1 inh | PABP FP inh | HIV Env fusion | MT1-MMP act inh | MT1-MMP act inh RFP | Yeast UUG start | others
COc1ccc(Cl)cc1/C=C(\C#N)C(N)=O | 5 | -8 | i | 13 | 12 | -1 | 0 | -23
N#Cc1ccccc1CN1C(=O)NC2(CCCCCC2)C1=O | -5 | -5 | i | -6 | -9 | -4 | -1 | -9
CCOc1cccc(C2C(C#N)=C(N)Oc3cc(C)oc(=O)c32)c1OCC (stereo not given) | 4 | 0 | i | -6 | . | 3 | 6 | -17

Next entries follow:
SMILES | CSC inhib | eIF4H inh | Rce1 inh | PABP FP inh | HIV Env fusion | MT1-MMP act inh | MT1-MMP act inh RFP | Yeast UUG start | others
O=c1cc(CN2CCN(c3ccccc3)CC2)c2ccccc2o1 | . | . | . | . | -10 | 0 | 2 | -9
CNC(=S)N/N=C(\C)c1ccc(Cl)s1 | -5 | 5 | i | -12 | . | 2 | 3 | .
CCOC(=O)N1CCN(C(=O)COc2ccccc2Cl)CC1 | -14 | 9 | . | 3 | -56 | -2 | 0 | -6
C=CCn1c(SCc2csc(C)n2)nc2sc3c(c2c1=O)CCCC3 | 7 | -13 | i | -7 | . | 2 | -5 | -15
O=C(COC(=O)c1cc2c(s1)CCCC2)Nc1ccc(Cl)cn1 | -4 | -3 | i | -14 | 22 | 5 | 6 | .
CCCCOc1ccc(C2/C(=C(/O)c3ccc4c(c3)CC(C)O4)C(=O)C(=O)N2CCCN2CCOCC2)cc1OC (stereo not given) | 1 | -1 | i | -5 | 16 | -2 | -4 | -4
CCOC(=O)c1ccc(NC(=O)C2CC(O)CN2S(=O)(=O)c2ccc(C)cc2)cc1 (stereo not given) | 15 | . | . | . | . | 1 | 1 | -15
COc1ccccc1/C=C1\Oc2cc(OC(=O)N3CCOCC3)ccc2C1=O | -7 | 6 | i | -1 | 9 | -3 | -9 | .
CCOC(=O)/C(C#N)=C/c1ccc(SC)cc1 | -4 | 2 | i | 10 | -117 | 2 | 2 | .
Cc1ccccc1OCC(=O)NNC(=O)CCc1ccccc1 | 12 | -2 | i | 10 | 22 | -1 | 3 | -6
COc1cccc(CNc2ccc3c(c2)ncn3C)c1OC | -8 | -3 | i | 5 | 0 | 4 | -1 | -4
COC(=O)c1[nH]c2cccc(OC)c2c1NC(=O)CCN1CCC(C)CC1 | -9 | 4 | i | -6 | . | -3 | -3 | -18

An excerpt from above in order of molecular weight, lowest first:
SMILES | CSC inhib | eIF4H inh | Rce1 inh | PABP FP inh | HIV Env fusion | MT1-MMP act inh | MT1-MMP act inh RFP | Yeast UUG start | others
CCOC(=O)/C(C#N)=C/c1ccc(SC)cc1 | -4 | 2 | i | 10 | -117 | 2 | 2 | .
COC(=O)c1[nH]c2cccc(OC)c2c1NC(=O)CCN1CCC(C)CC1 | -9 | 4 | i | -6 | . | -3 | -3 | -18
C=CCn1c(SCc2csc(C)n2)nc2sc3c(c2c1=O)CCCC3 | 7 | -13 | i | -7 | . | 2 | -5 | -15

Screening data deposited in PubChem by several laboratories.
